Bioassay records deposited in PubChem BioAssay by several laboratories.
GALR2 agonist = GALR2 (human) receptor agonism. GALR2-expressing cells, agonist activation read-out. 140,000 tested, 0.48% active. AID 803. O43603. activation, %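 (tested at 5 µM)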;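 active means above mean plus 3 SD of all compounds, about 5% in these data, not always enough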;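 further: 0% = vehicle buffer wells and 100% = reference agonist at full effect; tested in CHO reporter cells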
Target sequence (O43603 whole entry, looked up): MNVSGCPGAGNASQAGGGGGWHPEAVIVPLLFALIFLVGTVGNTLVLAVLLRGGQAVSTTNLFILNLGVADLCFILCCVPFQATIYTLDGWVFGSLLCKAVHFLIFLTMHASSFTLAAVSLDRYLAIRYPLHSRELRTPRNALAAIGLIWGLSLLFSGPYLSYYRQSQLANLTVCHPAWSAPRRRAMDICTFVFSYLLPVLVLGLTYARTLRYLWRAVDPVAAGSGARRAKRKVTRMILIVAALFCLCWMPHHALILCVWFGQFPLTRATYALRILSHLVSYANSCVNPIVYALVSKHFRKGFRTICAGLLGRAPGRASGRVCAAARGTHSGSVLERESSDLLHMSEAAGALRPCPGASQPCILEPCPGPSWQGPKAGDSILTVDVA
RGS16-Gao = modulates binding between human RGS16 and Galphao. O15492+P09471. bead-based flow cytometry RGS16-Galphao binding, fluorescence; actives lie on both sides. binding response (% of control), % at 10 µM. 220,000 tested, 0.38% active. AID 1441;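 active means below 25% or above 175%, edge rows of some plates excepted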;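 further: Galphao activated by GDP with aluminum fluoride before binding; 100% = wells without compound and 0% = beads without RGS; some results beyond the cut were filed as inactive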
Target sequence (O15492 whole entry, looked up): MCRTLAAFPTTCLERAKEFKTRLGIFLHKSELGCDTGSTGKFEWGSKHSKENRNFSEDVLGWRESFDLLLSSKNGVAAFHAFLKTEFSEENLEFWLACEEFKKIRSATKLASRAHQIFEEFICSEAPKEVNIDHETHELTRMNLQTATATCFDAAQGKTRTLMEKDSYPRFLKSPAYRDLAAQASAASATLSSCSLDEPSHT
Target sequence (P09471 whole entry, looked up): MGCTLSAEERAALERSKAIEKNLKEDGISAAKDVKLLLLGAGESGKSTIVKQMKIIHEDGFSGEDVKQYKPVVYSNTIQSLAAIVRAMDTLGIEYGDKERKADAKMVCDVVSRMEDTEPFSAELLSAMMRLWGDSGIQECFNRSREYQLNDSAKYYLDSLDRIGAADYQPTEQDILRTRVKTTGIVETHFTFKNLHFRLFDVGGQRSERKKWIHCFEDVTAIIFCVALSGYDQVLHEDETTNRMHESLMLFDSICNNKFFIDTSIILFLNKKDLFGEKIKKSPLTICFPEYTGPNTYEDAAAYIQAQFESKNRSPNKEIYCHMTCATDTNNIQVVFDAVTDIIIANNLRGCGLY
PKD1 inh = inhibitors of human PKD1 kinase | 200,000 tested, 0.056% active | inhibition, %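 (about 10 µM by stock and volumes)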 | Q15139 | AID 797 | PKD1 kinase fluorescence polarization assay;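 active means inhibition of 50% or more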;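 further: controls were vehicle for no effect and a reference inhibitor for full effect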
HSV replic up = increases HSV replication in cells; HSV replication augmentation in cells, fold increase; maximum fold increase; 220,000 tested, 0.005% active;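 active means peak rise of 1.5-fold or more in the series; tested in PC3 cells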;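 further: first round at 10 µM; read as green reporter fluorescence; hits show the peak of a series up to 25 µM; 1 = signal of infected wells without compound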
Insulin prom inh = TRM-6 insulin promoter activity inhibition; TRM-6 cells (human fetal islet line), insulin promoter-eGFP reporter, imaging; reporter expression induced with tamoxifen; inhibition, % at 2 µM; 130,000 tested, 0.9% active;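 active means inhibition above the mean plus 3 SD, with well images judged a real hit on visual review, cut at about 60% in these data, passing the limit was not always enough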
Insulin prom inh cell count = recorded beside Insulin prom inh, whose call it bears; normalized cell count, %; measured here: cell count, toxicity; reference of the scale not given here;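 cells exposed to compound for 48 h; stained nuclei by imaging scaled within each plate; lower means fewer cells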
HSV replic up primary fold = recorded beside HSV replic up, whose call it bears; fold increase; compound at 10 µM; measured here: primary screen fold increase 10 uM; tested in PC3 cells;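 GFP signal in the first replicate; 1 = infected wells without compound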
An asterisk follows results filed as active; i = inactive; . = no result given.

SMILES	GALR2 agonist	RGS16-Gao	PKD1 inh	HSV replic up	HSV replic up primary fold	Insulin prom inh	Insulin prom inh cell count
COc1ccccc1N(C(C)=O)c1nc(C)cc(C)c1C#N	-0.9	99	4	i	0.98	-92	54
C#CCNc1ccc([N+](=O)[O-])cc1	.	104	-9	i	0.98	18	87
N#Cc1c(/N=C/c2cccs2)sc2c1CCC2	-2.8	101	10	i	0.89	.	.
CCCc1cc(=O)[nH]c(SCC(=O)N2CCN(S(=O)(=O)c3ccc(Cl)cc3)CC2)n1	-1.6	98	-4	i	1.1	6	66
Cc1nnsc1Sc1cccc(C(F)(F)F)c1	-2.6	96	6	i	0.96	-7	146
CCn1c(SCc2ccccc2Cl)nc2ccccc21	-1.0	106	-6	i	1.1	3	209
C=CCNS(=O)(=O)c1ccc(OCC(=O)OCC)cc1	-2.5	103	1	i	0.98	32	77
CC(C)Cn1cnc2c(c(-c3ccccc3)c(-c3ccccc3)n2Cc2ccco2)c1=N	-0.1	106	3	i	0.56	-29	119
CC(C)C(=O)Nc1ccc2oc(-c3cc(F)c(F)cc3Cl)nc2c1	-2.3	93	0	i	0.88	-388	93
COc1ccc(/C=N/NC(=O)CCn2nc(C)cc2C)cc1O	.	113	.	i	1.1	.	.
COC(=O)CSC1=C(C#N)C(c2ccccc2)CC(=O)N1 (configuration not stated)	0.0	99	3	i	1.3	-9	128
O=C1NC(c2ccc3c(c2)OCO3)Nc2ccccc21 (configuration not stated)	-0.6	91	-4	i	0.92	7	99
O=C(CN1CCN(c2ncccn2)CC1)N1CCc2ccccc21	-1.9	98	0	i	0.94	.	.
CCOC(=O)C(=O)Nc1sc(C(=O)N(CC)CC)c(C)c1C#N	.	104	-6	i	0.98	.	.
CCN(Cc1cc2cc(C)ccc2[nH]c1=O)S(=O)(=O)c1ccccc1	-0.3	101	-7	i	0.74	.	.
COc1cc(NC(=O)COC(=O)CNS(=O)(=O)c2ccc(F)c(F)c2F)cc(OC)c1	0.0	100	-3	i	0.99	9	92
Cn1c(-c2ccc[nH]c2=O)nc2cc(Cl)ccc21	0.2	105	4	i	0.95	-14	82
N#Cc1nc(-c2ccco2)oc1NCc1ccco1	-1.5	103	0	i	0.87	-22	54
Cc1ccc(S(=O)(=O)N2CCN(S(=O)(=O)N(C)C)CC2)cc1	-0.4	98	-7	i	1.1	32	59
O=C1CC(N2CCSCC2)C(=O)N1c1ccc(Br)cc1 (configuration not stated)	.	98	.	i	0.88	.	.
COC(=O)CCCC1=CC2=CC(=O)C(C)(OC(=O)c3cccs3)C(=O)C2=CN1CC(C)C (configuration not stated)	.	96	.	i	0.95	.	.
CC(C)(C)C(=O)Nc1ccc(NC(=O)C(C)(C)C)cc1	.	103	.	i	1.1	.	.
Cn1cc(/C=N/NC(N)=S)c2ccccc21	.	96	.	i	0.95	.	.
Cc1nc(COc2cccc(Cl)c2)sc1C(=O)/C=C/N(C)C	.	97	.	i	0.88	.	.
Cc1ccc(SCCC(=O)OCC(=O)NCC2CCCCC2)cc1	.	88	-8	i	0.93	-33	74
SMILES	GALR2 agonist	RGS16-Gao	PKD1 inh	HSV replic up	HSV replic up primary fold	Insulin prom inh	Insulin prom inh cell count
CCOC(=O)C(CCCCC(NC(C)=O)(C(=O)OCC)C(=O)OCC)(NC(C)=O)C(=O)OCC	.	106	.	i	0.91	.	.
Cn1c(CCN2CCCCC2)nc2cc(NC(=O)NC3CCCCC3)ccc21	.	93	.	i	0.9	.	.
CC(C)(C)NC(=O)Cn1nnc(-c2ccccc2NC(=O)c2ccco2)n1	-2.1	102	-3	i	0.97	22	100
COc1ccc(OC)c(S(=O)(=O)Nc2ccc(OCC(=O)O)cc2)c1	-2.3	98	-13	i	0.91	.	.
Cn1cc(NC(=O)OCc2ccc(Cl)cc2)c(C(F)(F)F)n1	.	106	-1	i	1.2	-24	88
CC(C)c1ccccc1NC(=O)CNC(C)c1ccc(F)cc1 (configuration not stated)	.	104	-5	i	0.9	.	.
O=C1CCCc2c1[nH]c1c(Br)cccc21	-2.0	105	-6	i	0.9	.	.
C=CCn1cc(Cl)c(=O)n(CC=C)c1=O	-0.3	101	-2	i	1	.	.
Nc1cc(=O)[nH]c(SCC(=O)Nc2cccc(Cl)c2)n1	-0.6	39	-8	i	0.98	7	74
CCC(=O)Nc1cc(C)c(NC(=O)CCc2ccccc2)cn1	0.3	99	3	i	0.83	-14	206
Cc1ccc(NC(=S)NNc2ncc(C(F)(F)F)cc2Cl)c(C)c1	-1.4	68	-7	i	1.1	.	.
N#C/C(=N\Nc1ccc(Cl)cc1)C(=O)c1ccccc1	-1.6	80	0	i	0.75	0	189
Cc1cc(NC(=O)CS(=O)(=O)c2cn(Cc3cccc(F)c3)c3ccccc23)no1	-1.1	88	5	.	.	-8	125
CCC(SCC(=O)OC)C(=O)Nc1nnc(C(C)C)s1 (configuration not stated)	-2.2	107	-16	i	0.93	.	.
CC(C)Oc1ccc(N2CC(C(=O)Nc3ccc4c(c3)OCO4)CC2=O)cc1 (configuration not stated)	-2.5	104	-19	i	1.4	.	.
O=C(CSCc1nc2ccccc2[nH]1)N1CCN(c2cccc(Cl)c2)CC1	-3.1	103	-5	i	1	-5	119
Oc1ccccc1CNc1nc2ccccc2n1CCN1CCCCC1	-1.0	108	11	i	1.4	43	138
FC(F)(F)c1cccc(NC(=S)Nc2cccc(NC(=S)Nc3cccc(C(F)(F)F)c3)n2)c1	.	95	.	i	0.71	.	.
CCC1(C)Cc2c(sc3nnn(CC(=O)Nc4ccccc4C)c(=O)c23)CO1 (configuration not stated)	-0.5	103	-2	i	0.83	.	.
COc1ccc(C)cc1-n1[nH]nnc1=S	.	119	-4	i	0.92	.	.
Cc1cc(N2CCCCCC2)nc2ccc(F)cc12	-0.4	.	-2	i	0.97	-7	58
CCCSc1nc(C)nc2c1c(=O)n(C)c(=O)n2C	-1.8	95	1	i	0.83	.	.
Cc1ccc(-c2cc(C(=O)Nc3cccnc3)c3ccccc3n2)o1	-3.0	87	-10	i	0.95	.	.
O=C(O)CCCN1C(=O)C(=O)/C(=C(/O)c2ccc(Cl)cc2)C1c1ccccc1 (configuration not stated)	.	99	.	i	1.2	.	.
O=C(CSCCO)Nc1cccc([N+](=O)[O-])c1	0.1	90	0	i	1	-5	121

Of the compounds above, these have bromine.
SMILES	GALR2 agonist	RGS16-Gao	PKD1 inh	HSV replic up	HSV replic up primary fold	Insulin prom inh	Insulin prom inh cell count
O=C1CC(N2CCSCC2)C(=O)N1c1ccc(Br)cc1 (configuration not stated)	.	98	.	i	0.88	.	.
O=C1CCCc2c1[nH]c1c(Br)cccc21	-2.0	105	-6	i	0.9	.	.

More compounds.
SMILES	GALR2 agonist	RGS16-Gao	PKD1 inh	HSV replic up	HSV replic up primary fold	Insulin prom inh	Insulin prom inh cell count
COc1cccc2cc(/C(=N/O)c3ccc(Br)cc3)oc12	.	102	-1	i	0.83	.	.
O=C(Nc1cccc(O)c1)c1cccc(S(=O)(=O)N2CCCC2)c1	0.6	98	2	i	0.94	.	.
Nc1ccc(Cl)c(S(=O)(=O)Nc2ccccc2Cl)c1	.	105	-6	i	0.99	-40	192
Cc1ccc(S(=O)(=O)c2ccc(C)cc2)cc1	0.1	105	-12	.	.	19	163
CCN(CC)CCN(C(=O)c1ccc(CN2CCCCC2)o1)C(C(=O)NC1CCCCC1)c1ccc(F)cc1 (configuration not stated)	.	98	0	i	0.87	-57	124
CCn1c(SCc2nc3ccccc3[nH]2)nnc1-c1cccnc1	-2.3	95	-1	i	0.84	-100	149
Cc1nc2sc3c(c2c(=O)o1)CCC3	0.5	103	4	i	1.2	7	126
COc1cccc(CNC(=O)CCC2CCCN(C(=O)c3cc4ccccc4o3)C2)c1 (configuration not stated)	.	97	2	i	0.98	.	.
CCOC(=O)c1c(C)[nH]c(C(=O)CN2C(=O)NC(C)(c3ccc4ccccc4c3)C2=O)c1C (configuration not stated)	-0.4	104	1	i	0.92	-5	55
Cc1cc(C(=O)Nc2cccc(O)c2)co1	-0.6	98	6	i	0.97	.	.
CCOC(=O)C1CCCN(C(=O)C2CCN(c3nnc(-n4cccc4)s3)CC2)C1 (configuration not stated)	-1.8	104	12	i	0.94	.	.
COc1cc(/C=N/NC(=O)CC2C(=O)NN=C2C)ccc1O (configuration not stated)	.	100	.	i	0.96	.	.
O=C1CCCC2=C1C(c1ccsc1)CC(=O)N2c1ccccc1 (configuration not stated)	0.2	101	-2	i	0.79	4	81
Cc1ccc(C(=O)Nc2cccc3ncccc23)cc1[N+](=O)[O-]	.	105	-1	i	0.99	.	.
CCC1=NN2C(=N)/C(=C/c3cc(C)n(-c4ccccc4)c3C)C(=O)N=C2S1	.	107	.	i	0.81	.	.
Cc1cc(C)cc(OCC(=O)Nc2cc(C)on2)c1	.	100	-5	i	0.7	.	.
Cc1ccc(NC(=O)COC(=O)CNC(=O)c2ccc(C)s2)cc1	.	98	-4	i	1	-17	233
COc1ccccc1NC(=O)c1sc2nc(-c3ccco3)ccc2c1N	1.5	100	1	i	1.3	14	110
CC(C)COC(=O)C1C2C=CC3(CN(C4CCCC4)C(=O)C13)O2 (configuration not stated)	-0.9	105	-9	i	0.95	.	.
CCOC(=O)c1c(C)[nH]c(C)c1C(=O)CSc1nc2ccccc2[nH]1	-1.1	106	0	i	1.1	.	.
CCCn1c(=NC(C)=O)c(C(=O)OCC)cc2c(=O)n3ccccc3nc21	7.8	97	-2	i	1	.	.
O=C(Nc1ccc([N+](=O)[O-])cc1)C1CC1(c1ccccc1)c1ccccc1 (configuration not stated)	-1.2	66	-6	i	1.1	.	.
O=C(NCC1CCCO1)c1ccc(/C=N/O)nc1 (configuration not stated)	-2.7	105	-7	i	1.1	-5	138
COc1cccc(S(=O)(=O)NCc2ccc3c(c2)OCO3)c1	-4.7	81	-2	i	0.85	26	164
O=[N+]([O-])c1ccc(OCc2nnc(-c3ccccc3)o2)cc1	.	99	-1	i	0.98	.	.

Of the compounds above, these have two or more sulfur atoms.
SMILES	GALR2 agonist	RGS16-Gao	PKD1 inh	HSV replic up	HSV replic up primary fold	Insulin prom inh	Insulin prom inh cell count
N#Cc1c(/N=C/c2cccs2)sc2c1CCC2	-2.8	101	10	i	0.89	.	.
CCCc1cc(=O)[nH]c(SCC(=O)N2CCN(S(=O)(=O)c3ccc(Cl)cc3)CC2)n1	-1.6	98	-4	i	1.1	6	66
Cc1nnsc1Sc1cccc(C(F)(F)F)c1	-2.6	96	6	i	0.96	-7	146
Cc1ccc(S(=O)(=O)N2CCN(S(=O)(=O)N(C)C)CC2)cc1	-0.4	98	-7	i	1.1	32	59
CCC(SCC(=O)OC)C(=O)Nc1nnc(C(C)C)s1 (configuration not stated)	-2.2	107	-16	i	0.93	.	.
FC(F)(F)c1cccc(NC(=S)Nc2cccc(NC(=S)Nc3cccc(C(F)(F)F)c3)n2)c1	.	95	.	i	0.71	.	.

Additional results.
SMILES	GALR2 agonist	RGS16-Gao	PKD1 inh	HSV replic up	HSV replic up primary fold	Insulin prom inh	Insulin prom inh cell count
COc1cc(OC)c(/C=N/NC(=O)c2ccc(NC(C)=O)cc2)cc1Br	.	97	2	i	0.63	67	113
Cc1[nH]c2ccccc2c1C(=O)CSc1nc2ccccc2c(=O)n1CCCN1CCOCC1	0.9	100	-4	i	0.83	-24	68
CC(=O)c1cccc(NC(=S)N2CCN(CCN3C(=O)c4cccc5cccc(c45)C3=O)CC2)c1	.	100	-4	i	0.9	-20	107
CCOC(=O)C(CC(=O)O)N1CCCCC1 (configuration not stated)	-1.4	103	-8	i	0.98	.	.
C=CCn1c(NCCc2ccccc2)nc2c1c(=O)n(C)c(=O)n2C	-2.1	103	-14	i	0.97	30	35
O=C(Cc1cccs1)Nn1c(Cc2cccs2)nc2ccccc2c1=O	-0.5	91	-10	i	1	.	.
Cc1nc2[nH]c(=O)c3c(n2n1)NC1=C(C(=O)CC(C)(C)C1)C3c1ccc(F)cc1 (configuration not stated)	0.6	90	-10	i	0.99	.	.
COc1cc(/C=N/NC(=O)c2ccccc2Cl)ccc1Oc1ccc([N+](=O)[O-])cn1	.	102	0	i	0.75	.	.
c1ccc(CC2CCN(Cc3nc(-c4ccccc4)no3)CC2)cc1	-1.5	101	-5	i	0.91	18	97
ClC(Cl)c1nnc(-c2ccccc2)c(-c2c[nH]c3ccccc23)n1	2.1	96	13	i	0.99	-94	92
COc1ccc(CN2CCN(C)CC2)cc1OCc1ccccc1	-1.7	104	-2	i	0.92	0	60
Cc1cccc(OCc2nc3c4c(ncn3n2)-c2ccccc2CC42CCCC2)c1	0.2	96	7	i	1.2	-92	86
O=C(CSCc1ccccc1Cl)NCCSc1ccccn1	.	68	3	i	0.93	12	78
CCOc1ccc2nc(SCC(=O)N3c4ccccc4Sc4ccccc43)c(C#N)cc2c1	0.5	85	-5	i	1.1	-163	50
